Compound activity: PubChem, several laboratories
MT1-MMP act inh: blocks activation of human MT1-MMP; P50281; GFP/RFP ratio change, % at 20 µM; AID 651647; HT1080 RFP-PRO-GFP cells, GFP/RFP ratio fluorescence, overnight; percent of plate control window, DMSO zero; 0.061% of 360,000 active;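 active = GFP/RFP ratio change of at least 30% with cell ATP level not reduced by more than half and red fluorescence within 50% of control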; note: strong numbers were not always called active
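Assay system: HT1080 RFP-PRO-GFP cells. Benchmarks: DMSO vehicle wells and RFP-L50D-GFP reporter cell wells. Times: overnight cell settling, then overnight compound exposure, 37 °C, 5% CO2. Compound: 20 µM single dose, 1% DMSO. Read-out basis: GFP/RFP fluorescence ratio.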
UUG fidelity: yeast start codon fidelity modulation; S. cerevisiae UUG-firefly luciferase reporter, luminescence/redox ratio; activity score, % at 18.7 µM; 0.13% of 350,000 active;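 active = replicate mean at a twofold rise or more, about +100% in these data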;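 note: firefly luciferase made from a UUG start codon reports start codon fidelity; reporter light over untreated wells divided by growth signal over untreated wells; some hits fall short of that in this replicate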
Env fusion inh: HIV envelope-mediated fusion inhibition | HeLa-JRFL Env/CEM21 cell fusion, luciferase | inhibition, % at 12.3 µM | 1.1% of 360,000 active | AID 651610;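 active = mean replicate inhibition score of at least 50 and every replicate individually at or above 50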;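 note: 0% = plate neutral controls and 100% = maraviroc near 300 nM; one replicate is shown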
PABP polyA inh: PABP-poly(A) binding inhibition. inhibition, % at 35 µM. AID 2014. 1% of 290,000 active. P11940. PABP-poly(A) RNA binding, fluorescence polarization;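 active = 50% or more with normal probe brightness, or confirmed in later tests; about a fifth of its hits are not listed in these tables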;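 note: calls also rest on retests at 20 µM and on dose response follow-up; controls were probe without protein and protein plus probe with vehicle; some compounds called inactive have numbers as strong as hits; many hits fall short of the cut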
eIF4H FP inh: inhibitors of RNA binding by human eIF4H; Q15056; eIF4H fluorescence polarization binding assay; inhibition, % at 35 µM; 0.94% of 290,000 active;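 active = 50% or more with normal probe brightness, or confirmed in later tests; about a fifth of its hits are not listed in these tables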;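 note: calls also rest on retests at 20 µM and on dose response follow-up; 0% = protein and probe with vehicle and 100% = probe without protein; strong numbers were not always called active; many hits fall short of the cut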
Rce1 inhib: yeast Ras-converting enzyme inhibition; Q03530; yeast membranes, quenched prenylated peptide cleavage fluorescence; calls only; 0.27% of 290,000 active;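 active = fall in fluorescence gain of 50% or more versus controls, with final raw signal at or below 3038400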;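 note: plate controls were neutral control wells for no effect and wells lacking membranes for full effect; tested at 10 µM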
Target sequence (Q03530 whole entry, looked up): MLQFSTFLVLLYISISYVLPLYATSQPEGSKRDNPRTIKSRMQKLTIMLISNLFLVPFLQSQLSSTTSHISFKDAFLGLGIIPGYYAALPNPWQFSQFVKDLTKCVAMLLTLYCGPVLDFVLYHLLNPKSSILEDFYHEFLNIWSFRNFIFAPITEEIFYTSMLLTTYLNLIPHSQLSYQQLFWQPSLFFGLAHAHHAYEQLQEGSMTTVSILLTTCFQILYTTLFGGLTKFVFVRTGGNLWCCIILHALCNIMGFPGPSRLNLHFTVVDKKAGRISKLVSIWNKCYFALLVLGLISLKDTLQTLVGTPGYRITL
CSC inhib: cancer stem cell inhibition; AID 2717; cancer stem cell-like cells viability, luminescence; 1.1% of 300,000 active; inhibition, % at 7.5 µM;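 active = mean at 75% or more and at least half the replicates too; tested in HMLE shEcad cells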;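 note: 0% = median of negative and 100% = median of positive control wells; the first replicate is given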
eIF4H FP inh retest: also measured in eIF4H FP inh; calls as there; inhibition, %; compound at 20 µM; confirmation average;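 mean of two retest wells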
PABP polyA inh retest: second read-out of PABP polyA inh, no call of its own (marks repeat the call); inhibition, %; compound at 20 µM; confirmation repeats;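 mean of two retest wells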
MT1-MMP act inh RFP: further read-out of MT1-MMP act inh, marked with its call; RFP signal change, %; measured here: RFP expression control read;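 0 = vehicle wells; hits needed this value within 50% of zero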
* hit, by the source's call; i = inactive; / = not tested or not shown.

SMILES	MT1-MMP act inh	MT1-MMP act inh RFP	UUG fidelity	Env fusion inh	PABP polyA inh	eIF4H FP inh	Rce1 inhib	CSC inhib	others
CCO[C@H]1OC(C(=O)NCc2ccccc2)=C[C@@H](C2CCCCC2)[C@@H]1CCCO	-1	-7	-8	28	-4	-9	i	10
O=C(NC(=S)Nc1ccc(S(=O)(=O)N2CCCCC2)cc1)c1ccccc1	3	-10	-10	/	10	5	i	15
CCC(=O)OCC(=O)Nc1cc([N+](=O)[O-])ccc1OC	-2	4	/	1	5	3	i	-4
CCOc1ccc(Oc2ccccc2NC(=O)C2=COCCO2)cc1	1	-2	5	/	/	/	i	-1
COc1ccc(N=C2O/C(=C/c3sc(=S)n(CC4CCCO4)c3O)N=C2C#N)cc1 (stereo not drawn)	3	6	-16	-31	6	5	i	8
C/C(Nc1ccc(Cl)cc1)=C(/C#N)C(N)=O	-1	0	-32	-92	2	-8	i	-5
CC(C)c1ccc(NC(=S)NC2CCN(Cc3ccccc3)CC2)cc1	2	-3	-36	/	4	-2	i	10
CCP(=O)(c1cccc([N+](=O)[O-])c1)c1cccc([N+](=O)[O-])c1	0	4	/	4	2	0	i	4
O=C(NCCNCc1cccc(Cl)c1)c1ccco1	2	8	-7	-4	/	/	/	/
NC(=O)C1CCN(CC(=O)NC2CCCc3ccccc32)CC1 (stereo not drawn)	3	4	/	-3	-2	-6	i	-4
CC(C)(C)Nc1nc(Oc2ccc(=O)n(-c3ccccc3)n2)nc(N2CCOCC2)n1	3	3	16	/	-6	-2	i	-31
Cc1ccc(NS(=O)(=O)c2cccc(C(=O)N3CCN(C(=O)c4ccco4)CC3)c2)cc1	1	-6	5	/	/	/	/	-4
CCOc1ccccc1NC(=S)N(CCOC)C1CCN(C(C)=O)CC1	1	4	-7	4	2	5	i	-10
CN(CC(=O)Nc1ccc(F)cc1)C(=O)COC(=O)c1ccc(-c2ccccc2)cc1	-2	3	-9	-9	/	/	i	-3
CCc1c(C)nc2cc(-c3ccc(OC)c(OC)c3)nn2c1NCC1CC1	-4	-13	/	/	-8	-10	i	59
COC(=O)c1ccc2c(=O)n(CCCN3CCOCC3)c(=S)[nH]c2c1	0	3	-21	/	-7	-2	i	-2
Cc1ccc(Oc2cc([N+](=O)[O-])cc3c2C(=O)Nc2ccccc2O3)cc1	-34	-25	/	30	-14	71	i	0	eIF4H FP inh retest=-4;PABP polyA inh retest=2
COc1ccc(/C=C(/C#N)C(=O)Nc2ccc(C)cc2C)cc1C(=O)O	0	3	-11	/	-7	-6	i	-7
O=C(O)c1n[nH]c2ccccc12	-2	-4	-19	/	-6	-1	i	-10
Cc1cc(=O)[nH]c(NNC(=O)c2ccc(Cl)cc2)n1	-5	-1	-15	-3	/	/	/	/
O=[N+]([O-])c1ccc(N2CCOCC2)c(S(=O)(=O)N2CCOCC2)c1	-3	6	3	8	26	-1	i	-8
O=C(NCC1CCCO1)C1CCN(S(=O)(=O)c2cccc3cccnc23)CC1 (stereo not drawn)	0	9	2	-33	-3	-4	/	/
O=C(NC1CCCCC1)c1ccc(-c2cn[nH]c2)c2ccoc12	2	2	-9	-36	/	/	/	/
CN1C(=O)C(C)(C)c2cc(S(=O)(=O)NCC3CCC(C(=O)NCc4ccccc4)CC3)ccc21 (stereo not drawn)	6	-2	-6	3	-11	-3	i	4
CCN(c1cccc(C)c1)S(=O)(=O)c1ccc2c(c1)CCCN2C(C)=O	2	-2	-10	1	-6	-7	i	-3
Cc1cccnc1NC(=O)c1ccc(Cl)c(S(=O)(=O)N2CCCC2)c1	3	-1	-18	-7	-7	-4	i	-9
CCOC(=O)Cc1c(C)nc2cc(-c3ccc(C)cc3)[nH]n2c1=O	-5	0	-6	-88	12	3	i	-15
Cc1nc(SCc2nc3cc(Cl)c(F)cc3[nH]2)c2oc3ccccc3c2n1	-7	-4	-15	66*	/	/	/	/
CCOC(=O)C(Sc1nn(C)c(=S)s1)C(C)=O (stereo not drawn)	2	6	-13	-18	-2	-10	i	4
COc1cc(N/C=C(\C(C)=O)c2ccccc2)cc(OC)c1	-4	-3	/	/	0	-13	/	-2
CC(=O)Nc1ccc(-c2csc(Nc3ccc(Cl)cn3)n2)cc1	-12	-30	/	10	-13	-3	i	9
CCCn1nnc(NC(=O)c2cccc(OCC)c2)n1	2	3	-21	/	7	3	i	-1
CCCc1c(C(=O)N/N=C/C(C)=C/c2ccccc2)nnn1-c1nonc1N	2	-4	-6	2	-7	0	i	3
COc1ccc(/C=N/n2c(-c3cc(C)[nH]n3)n[nH]c2=S)cc1	0	3	/	20	-4	-2	i	-7
O=C1CC(N2CCC(c3nc4ccccc4s3)CC2)C(=O)N1 (stereo not drawn)	-2	3	-10	-61	5	6	i	-2
Cc1ccc(C(=O)NC(=S)NCC2CCCO2)cc1 (stereo not drawn)	1	-5	-12	/	7	-6	i	-5
COc1cccc(C2C=C(c3ccc(Br)s3)Nc3ncnn32)c1OC (stereo not drawn)	-113	-2	-6	/	118	127	i	7	eIF4H FP inh retest=0;PABP polyA inh retest=-1
Cc1ccc(S(=O)(=O)N2CCN(C(=O)/C=C/c3ccco3)CC2)cc1	-2	-3	/	5	-1	70	i	-13	eIF4H FP inh retest=-7;PABP polyA inh retest=4
OC(COCC1COc2ccccc2O1)CN1CCN(c2ccccc2F)CC1 (stereo not drawn)	0	-1	4	/	5	-2	i	4
COC(=O)C1(S(=O)(=O)c2cccc3nsnc23)CC1	-1	2	-5	/	11	3	i	-6
CNC(=S)N/N=C1\C(=O)c2cccc3cccc1c23	3	0	-31	/	31	39	i	40
O=C(COC(=O)c1ccc(S(=O)(=O)NCc2ccco2)cc1)NC1CCCCCC1	3	6	-17	-17	15	25	i	6
CC(C)(C)OC(=O)NCc1ccc(CNC(=O)c2nc[nH]c2C(=O)NCc2ccc(CNC(=O)OC(C)(C)C)cc2)cc1	13	-26	-16	15	/	/	/	/
CC(C)(C)c1ccc(CN2C(=O)CSC2=O)cc1	1	4	/	4	1	1	i	13
O=C(NCC1CCCO1)c1nn2c(C(F)(F)F)cc(-c3cccs3)nc2c1Br (stereo not drawn)	-3	4	-27	14	6	11	i	-14
COc1ccc(C(=O)OCC(=O)Nc2c(C)cccc2C)c(OC)c1OC	5	1	-4	1	-4	-3	i	-8
NCCCNC(=O)Cn1c(=O)c2c3c(sc2n(Cc2ccccc2)c1=O)CCCC3	1	3	-7	4	-10	2	i	-5
CCCn1c(C)nc2c(c1=O)c1nc3ccccc3nc1n2CCC1=CCCCC1	0	-9	-4	-23	18	26	i	1
CNc1nc(N)c([N+](=O)[O-])c(NCC2CCCO2)n1 (stereo not drawn)	4	3	/	-11	4	-3	i	-5
COC(=O)C(NC(=O)c1ccccc1)(Nc1nccs1)C(F)(F)F (stereo not drawn)	4	5	-12	/	-4	-4	i	-4
CC(C)NC(=O)CC(=O)N/N=C/c1cccs1	2	4	-8	5	10	-6	i	-4
CCOC(=O)CC1(c2ccc(OC)c(OC)c2)C(=O)c2ccccc2C1=O	3	-1	/	11	-1	-16	i	2
CC(C)(C)c1ccc(OCc2nc(-c3ccccn3)no2)c(Br)c1	6	0	-33	-177	-2	10	i	73
CCOC(=O)C1=C(C)N(c2ccc(OC)cc2)C(=O)/C1=C\c1ccc(O)c(OCC)c1	0	-4	/	-33	3	-12	i	9
CC(OC(=O)C1CCN(c2ccc(C(F)(F)F)cn2)CC1)C(=O)NC1CCCCC1C (stereo not drawn)	8	-6	-6	-3	/	/	/	/
CCOc1ccc(S(=O)(=O)N2CCN(C(=O)CCOc3ccccc3C)CC2)cc1	-1	-7	16	11	/	/	i	-1
O=C(N/N=C/c1coc2ccccc2c1=O)c1cc(O)cc(O)c1	-6	-6	/	9	-9	4	/	/
c1cnc(SCCOc2cccc3ccccc23)nc1	1	-1	/	-164	-6	0	i	4
Cc1ccc(N(CCC#N)C(=O)COC(=O)C2CCN(S(=O)(=O)c3ccc(C)c(C)c3)CC2)cc1	2	6	/	5	/	/	i	-16
Cc1cccn2c(=O)c(C=O)c(N3CCN(C)CC3)nc12	-2	1	-10	9	38	85	i	-8	eIF4H FP inh retest=42;PABP polyA inh retest=44

Reprinted from the part before: 2 compounds; new compounds follow.
SMILES	MT1-MMP act inh	MT1-MMP act inh RFP	UUG fidelity	Env fusion inh	PABP polyA inh	eIF4H FP inh	Rce1 inhib	CSC inhib	others
Cc1ccc(N(CCC#N)C(=O)COC(=O)C2CCN(S(=O)(=O)c3ccc(C)c(C)c3)CC2)cc1	2	6	/	5	/	/	i	-16
Cc1cccn2c(=O)c(C=O)c(N3CCN(C)CC3)nc12	-2	1	-10	9	38	85	i	-8	eIF4H FP inh retest=42;PABP polyA inh retest=44
O=c1cc(-c2ccc(O)cc2)oc2c(O)c(O)c(O)c(O)c12	6	-6	-1	/	83*	91*	/	-11
CC(C)CC(=O)N/C(N)=N/c1nc2ccccc2o1	5	-4	-25	-78	-6	3	i	-1
COc1ccc(CN(C)C2CCCCC2)c(C)c1C	-1	5	-17	/	-2	3	i	25
Cc1cc(C(=O)Nc2sc3c(c2C#N)CCC3)no1	-9	-14	-15	-149	18	17	i	67
COc1ccc(Nc2nccc(N(C)C)c2C#N)cc1	-1	3	0	-5	-7	-7	i	9
Cc1cc(Cn2nc(-c3ccccc3)cc2C(=O)NCc2cccc(C(F)(F)F)c2)on1	2	-6	-9	-6	/	/	i	37
Cc1c(NS(=O)(=O)c2cccc(C(=O)N3CCC(C(N)=O)CC3)c2)c(=O)n(-c2ccccc2)n1C	-1	5	-1	-7	/	/	/	-9
O=C(CSc1nnc2sc3ccccc3n12)NCc1ccc2c(c1)OCO2	1	6	-6	6	4	7	i	3
O=C1Nc2ccc(Br)cc2C1(O)Cc1ccncc1 (stereo not drawn)	0	1	-13	/	6	10	i	-15
C/C=C(\C)C(=O)O[C@@H]([C@H](O)c1cc2ccc(=O)oc2cc1OC)C(C)(C)O	1	2	-15	-8	/	/	/	-11
S=C(N/N=C/c1ccccc1Cl)Nc1ccccc1	0	-5	-18	-244	-2	3	i	-10
CC(C)CNc1nnnc2c1sc1nc(N3CCOCC3)c3c(c12)CCCC3	3	-2	/	1	0	-6	i	/
NS(=O)(=O)c1cccc(NC(=O)COC(=O)COc2ccc3ccccc3c2)c1	-1	5	/	0	5	-8	i	-5
COc1ccccc1CNC(=O)CN(C)CC(=O)Nc1ccccc1Br	3	2	0	/	/	/	/	0
CCn1cc(C(C)NC(=O)Nc2ccccc2C(=O)OC)c(C)n1 (stereo not drawn)	-2	-3	/	-2	5	-2	i	-4
Cc1ccc[n+](-c2[nH]c(=O)sc2/C=N/N=C(\[O-])c2cccnc2)c1	0	2	14	1	14	14	i	-15
CCCNc1cc(C)oc(=O)c1C(=O)CCC	-4	1	-13	/	8	-2	i	-10
Cc1ccc2c(c1)-c1c(ssc1=S)C(C)(C)N2C(=O)CSC1=NCCS1	4	-7	-26	/	-6	-1	i	16
COc1ccc(CCC2(C)NC(=O)NC2=O)cc1 (stereo not drawn)	4	4	-6	/	3	-4	i	-17
CC(C)CNC(=O)CN(C1CCCCC1)S(=O)(=O)c1ccccc1	-2	0	-16	-39	2	-11	i	0
CCCCC(=O)Nc1nnc(/C=C/c2ccc(OC)cc2)s1	0	0	-1	/	9	-6	i	-4

Sorted by SMILES length (smallest number first): some entries from above.
SMILES	MT1-MMP act inh	MT1-MMP act inh RFP	UUG fidelity	Env fusion inh	PABP polyA inh	eIF4H FP inh	Rce1 inhib	CSC inhib	others
O=C1Nc2ccc(Br)cc2C1(O)Cc1ccncc1 (stereo not drawn)	0	1	-13	/	6	10	i	-15
COc1ccccc1CNC(=O)CN(C)CC(=O)Nc1ccccc1Br	3	2	0	/	/	/	/	0
Cc1cc(Cn2nc(-c3ccccc3)cc2C(=O)NCc2cccc(C(F)(F)F)c2)on1	2	-6	-9	-6	/	/	i	37

Some of the compounds tested; the hit share may differ from the screen's.
